Bioassay records: PubChem, Broad Institute
Hedgehog inh = Sonic Hedgehog pathway inhibition | Shh-LIGHT2 Gli-luciferase reporter, 30 h | hit rate 2.1% among 22,000 | inhibition, % (concentration not given with the values);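 active = replicate mean of 65% or more; inconclusive = mean lower but half the replicates past it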;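 also: pathway switched on by Shh-conditioned medium diluted 1 in 25 in low serum; 100 nL library stock added to about 40 µL; 0% = median of neutral wells and 100% = positive control level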
MITF inhib = MITF inhibition | TRPM1 promoter luciferase, luminescence, 24 h | inhibition, % (concentration not given with the values) | hit rate 0.28% among 37,000 | AID 2240;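 active = most replicates at 85% or more, or half of them and the mean; inconclusive = half reach 85% but not the mean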;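 also: human melanocyte line stably carrying TRPM1 promoter luciferase reporter; 0% = vehicle wells and 100% = a positive control; the first replicate is given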
YB-1 expression = YB-1 expression inhibition; U2OS, qRT-PCR YB-1 vs CDIP delta delta Cp, 16 h; hits give high values; zero = DMSO, each unit about twofold; delta delta Cp (YB-1 minus CDIP) (no concentration beside the values); hit rate 0.37% among 30,000;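 active = delta delta Cp rounded down to an integer at or above 3, about 3 SD of DMSO wells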;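 also: higher means less YB-1 transcript or more CDIP transcript relative to DMSO; stock transfer was 100 nL into about 100 µL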
PD-1 reverse act = activators reversing PD-1 mediated T-cell inhibition | primary human CD4 T cells, PD-L1 beads, CellTiter-Glo 96 h | activation, % (concentration not given with the values) | 29,000 tested, under 10 active;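 active = replicate mean of 50% or more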;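 also: 0% = median vehicle wells and 100% = positive control; 100 nL library stock added to about 50 µL; numbers are from one replicate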
The depositor's hits bear a star; ? = inconclusive; / = no result given. Only part of the results is shown, so the mix of outcomes need not match the whole.

SMILES	Hedgehog inh	MITF inhib	YB-1 expression	PD-1 reverse act
C[C@H]1CN([C@@H](C)CO)C(=O)c2cc(NC(=O)c3ccncc3)ccc2O[C@H]1CN(C)Cc1ccc(C(=O)Nc2ccccc2N)cc1	/	20	0.088	-2.6
COC(=O)c1cccc(NC(=O)CSc2nc3ccccc3s2)c1	/	-28	/	1.0
C=CC/C=C\C/C=C\CCCCCCCc1cccc(O)c1C(=O)O	-12	-8	0.93	-1.5
COc1ccc(S(=O)(=O)N(C)C[C@@H]2Oc3c(NS(=O)(=O)c4ccc(C)cc4)cccc3C(=O)N([C@H](C)CO)C[C@H]2C)cc1	-5	-14	-0.011	-0.5
CNC[C@H]1Oc2c(NC(=O)c3nc4ccccc4s3)cccc2C(=O)N([C@H](C)CO)C[C@@H]1C	32	45	0.76	2.7
CC(C)Cc1nc(SC(C)C(=O)Nc2ccc(Cl)cc2)n[nH]1 (stereo unspecified)	/	6	/	-5.9
CCC(O)c1ccc2c(=O)c(-c3ccccc3F)coc2c1 (stereo unspecified)	?	38	-0.66	-4.1
C[C@@H]1CN([C@@H](C)CO)C(=O)Cc2cc(NS(=O)(=O)c3ccc(F)cc3)ccc2O[C@@H]1CN(C)S(=O)(=O)c1ccccc1	-21	-24	-0.27	-2.6
Cc1noc(C)c1NC(=O)Nc1ccc2c(c1)C(=O)N([C@H](C)CO)C[C@H](C)[C@H](CN(C)Cc1ccc(C(=O)Nc3ccccc3N)cc1)O2	/	-12	-0.28	0.1
C[C@@H]1CN([C@@H](C)CO)C(=O)c2cc(NC(=O)Nc3ccc4c(c3)OCO4)ccc2O[C@@H]1CN(C)S(=O)(=O)c1cn(C)cn1	-2	-8	-0.046	0.6
CC(=O)OCc1ccccc1Sc1ccccc1C(=O)NCc1ccccc1	-39	-7	-0.63	0.7
O=C(NCc1cccnc1)c1cnn2c(C(F)F)cc(-c3ccccc3)nc12	/	-7	/	-5.7
C[C@H]1CN([C@@H](C)CO)C(=O)c2cc(NS(=O)(=O)c3ccc(Cl)cc3)ccc2O[C@H]1CN(C)C(=O)Nc1ccc(F)cc1	/	-2	-0.65	1.2
CC(C)NC(=O)N(C)C[C@@H]1Oc2ccc(NC(=O)CCC(F)(F)F)cc2C(=O)N([C@H](C)CO)C[C@H]1C	/	5	-0.18	-0.6
COc1ccccc1NC(=O)Cn1nnc(-c2cccs2)n1	/	-14	/	0.4
CN(c1ccccc1C(=O)Nc1ccccc1C(=O)N1CCOCC1)S(C)(=O)=O	/	-1	/	1.8
Cc1sc2nc(SCC(=O)Nc3c(F)cc(F)cc3Br)n(C)c(=O)c2c1C	/	65	/	0.8
COc1cc(/C=C\C(=O)O)cc(OC)c1OC	21	/	0.043	/
Cc1nnc(SCC(=O)Nc2ccc(Cl)cc2)n1-c1ccccc1	/	-28	/	-8.1
c1ccc(-c2nc3ccc(Cc4ccc5nc(-c6ccccn6)c(-c6ccccn6)nc5c4)cc3nc2-c2ccccn2)nc1	/	-18	/	0.9
O=C(Cn1ccc([N+](=O)[O-])n1)NCc1ccco1	/	-13	/	1.1
COC(=O)c1ccc(C2C(C(=O)c3ccco3)C(=O)C(=O)N2Cc2ccco2)cc1 (stereo unspecified)	/	-19	/	1.2
C1=Cc2nonc2C2C=C(c3ccccc3)N=C12 (stereo unspecified)	14	26	0.54	-1.2
C[C@@H]1CN([C@H](C)CO)C(=O)Cc2cc(NC(=O)Nc3ccc(F)cc3)ccc2O[C@@H]1CN(C)C(=O)Nc1ccccc1	-15	-2	0.053	-0.2
C[C@H](CO)N1C[C@H](C)[C@H](CN(C)S(=O)(=O)c2cn(C)cn2)Oc2c(NS(=O)(=O)c3ccccc3)cccc2C1=O	4	4	-0.19	/
C[C@H]1CN([C@@H](C)CO)C(=O)Cc2cc(NS(=O)(=O)c3ccccc3)ccc2O[C@@H]1CN(C)C(=O)Nc1ccc(F)cc1	/	-4	-0.21	/
Cc1ccc(S(=O)(=O)N(C)C[C@@H]2OCCCC[C@@H](C)Oc3ccc(NC(=O)Nc4ccc(F)cc4)cc3C(=O)N([C@H](C)CO)C[C@@H]2C)cc1	3	8	-0.18	-0.7
COc1ccc(S(=O)(=O)N(C)C[C@@H]2Oc3c(NS(=O)(=O)c4ccc(F)cc4)cccc3C(=O)N([C@H](C)CO)C[C@H]2C)cc1	-6	0	-0.098	-0.5
COc1ccc(CN(C)C[C@@H]2OCCCC[C@@H](C)Oc3ccc(NC(=O)Nc4ccccc4)cc3C(=O)N([C@H](C)CO)C[C@@H]2C)cc1	-35	7	0.32	1.4
COc1ccc(S(=O)(=O)N(C)C[C@@H]2Oc3ccc(NC(=O)c4ccncc4)cc3CC(=O)N([C@@H](C)CO)C[C@@H]2C)cc1	-14	-8	-0.59	0.1
C[C@H](CO)N1C[C@H](C)[C@@H](CN(C)Cc2ccc(Oc3ccccc3)cc2)Oc2c(NS(=O)(=O)c3ccc(F)cc3)cccc2C1=O	-22	7	0.32	-0.7
C[C@H]1CN([C@@H](C)CO)C(=O)Cc2cc(NS(=O)(=O)c3ccc(F)cc3)ccc2O[C@H]1CN(C)Cc1ccc2c(c1)OCO2	15	-10	0.00092	1.1
C[C@H]1CN([C@@H](C)CO)C(=O)c2cccc(NC(=O)c3ccc(-c4nccs4)cc3)c2O[C@@H]1CN(C)S(=O)(=O)c1ccc(F)cc1	26	2	-0.14	-0.1
O=C(Cn1cnc2sc3c(c2c1=O)CCCC3)NCCC(=O)N1CCN(c2ccc(F)cc2)CC1	21	2	0.35	1.0
C[C@@H]1CN([C@@H](C)CO)C(=O)c2cc(NC(=O)Nc3ccc(F)cc3)ccc2O[C@H]1CN(C)C(=O)Nc1ccccc1	-10	-5	-0.15	-1.0
O=c1c2ccccc2nc2n1CCC2O (stereo unspecified)	-1	-1	0.76	1.8
C[C@@H]1CN([C@H](C)CO)C(=O)c2cccc(NC(=O)C3CCCCC3)c2O[C@H]1CN(C)C(=O)NC1CCCCC1	-45	-3	-0.3	1.9
C[C@H]1CN([C@@H](C)CO)C(=O)c2cccc(NC(=O)Nc3ccccc3)c2O[C@H]1CN(C)S(=O)(=O)c1cn(C)cn1	-12	-2	-0.55	1.6
COc1ccc(NC(=O)N(C)C[C@H]2Oc3c(NC(=O)Nc4ccc(C(F)(F)F)cc4)cccc3C(=O)N([C@@H](C)CO)C[C@@H]2C)cc1	28	-13	0.42	/
O=C(COc1ccc(Cl)c2cccnc12)Nc1cccc([N+](=O)[O-])c1	/	-19	/	3.2
C[C@H](CO)N1C[C@H](C)[C@@H](CN(C)C(=O)Nc2ccc(C(F)(F)F)cc2)Oc2ccc(NC(=O)Nc3ccc(C(F)(F)F)cc3)cc2C1=O	19	40	0.12	-5.6
Cc1cccc(NC(=O)CSc2nnc(-c3ccco3)n2C)c1C	/	-4	/	-0.1
C[C@H]1CN([C@@H](C)CO)C(=O)c2cccc(NC(=O)c3ccc(-c4nccs4)cc3)c2O[C@H]1CN(C)Cc1ccncc1	29	-8	0.27	/
COc1cc2c(cc1OC)CN(C(=O)CSc1ncnc3sc(C)c(C)c13)CC2	/	-12	/	1.5
CNC[C@H]1Oc2ccc(NC(=O)Cn3cnnn3)cc2C(=O)N([C@@H](C)CO)C[C@H]1C	-22	-4	0.74	0.4
CC(C)NCc1ccccc1OCC(N)=O	/	-3	/	0.5
C[C@@H]1CN([C@@H](C)CO)C(=O)Cc2cc(NC(=O)Cn3cnnn3)ccc2O[C@@H]1CN(C)S(=O)(=O)c1cn(C)cn1	30	4	-0.22	/
COc1ccc(S(=O)(=O)Nc2ccc3c(c2)CC(=O)N([C@H](C)CO)C[C@H](C)[C@H](CN(C)Cc2ccccc2)O3)cc1	-19	-6	-11	1.1
Cc1ccc(S(=O)(=O)Nc2ccc3c(c2)C(=O)N([C@H](C)CO)C[C@H](C)[C@H](CN(C)C(=O)Nc2ccc4c(c2)OCO4)OCCCC[C@@H](C)O3)cc1	-11	-4	-0.14	/
Cc1noc(C)c1NC(=O)N(C)C[C@H]1Oc2ccc(N(C)C)cc2CC(=O)N([C@@H](C)CO)C[C@H]1C	11	4	0.26	0.4
C[C@H]1CN([C@@H](C)CO)C(=O)Cc2cc(NS(=O)(=O)c3ccc(Cl)cc3)ccc2O[C@@H]1CN(C)S(=O)(=O)c1cn(C)cn1	-21	-13	-0.27	2.1
Cc1noc(C)c1NC(=O)Nc1cccc2c1O[C@@H](CN(C)S(=O)(=O)c1cn(C)cn1)[C@@H](C)CN([C@H](C)CO)C2=O	4	-8	0.11	4.0
CNC[C@@H]1Oc2c(NS(C)(=O)=O)cccc2C(=O)N([C@@H](C)CO)C[C@@H]1C	-30	-2	0.00017	0.4
CCOC(=O)c1c(NC(=O)COc2ccccc2Cl)sc2c1CCCC2	/	-5	/	0.3
C[C@H](CO)N1C[C@H](C)[C@@H](CN(C)S(=O)(=O)c2cccs2)Oc2ccc(NS(=O)(=O)c3ccc(F)cc3)cc2C1=O	-38	-13	0.017	/
C[C@H]1CN([C@@H](C)CO)C(=O)c2cc(NC(=O)CCC(F)(F)F)ccc2O[C@H]1CN(C)Cc1ccc2c(c1)OCO2	/	-11	-0.1	2.5
C[C@H]1CN([C@@H](C)CO)C(=O)Cc2cc(NS(=O)(=O)c3ccccc3)ccc2O[C@H]1CN(C)Cc1ccc(C(=O)Nc2ccccc2N)cc1	/	30	-0.3	-4.9
O=C1NC2CCc3nc4ccccc4c(=O)n3C2=Nc2ccccc21 (stereo unspecified)	-3	1	-0.094	-0.1
C[C@H]1CN([C@@H](C)CO)C(=O)Cc2cc(NC(=O)Cn3cnnn3)ccc2O[C@@H]1CN(C)C	-21	2	0.019	0.6
COc1ccc(CN(C)C[C@H]2Oc3ccc(NC(=O)Cc4cn(C)c5ccccc45)cc3CC(=O)N([C@@H](C)CO)C[C@H]2C)cc1	4	17	0.034	/
The list goes on.
SMILES	Hedgehog inh	MITF inhib	YB-1 expression	PD-1 reverse act
C[C@H](CO)N1C[C@H](C)[C@H](CN(C)C)Oc2ccc(NS(=O)(=O)c3ccc(Cl)cc3)cc2CC1=O	?	-3	-0.058	/
Cc1ccc(Oc2nnc(-c3cccs3)c3ccccc23)cc1	/	3	0.58	-0.4
C[C@@H]1CN([C@@H](C)CO)C(=O)c2cc(NC(=O)C3CC3)ccc2O[C@@H]1CN(C)S(=O)(=O)c1ccccc1	-9	-6	-0.0033	1.2
COC(=O)c1ccc(NC(=O)CN(c2cc(C(F)(F)F)ccc2Cl)S(C)(=O)=O)cc1	/	-7	/	1.1
COc1ccc(NC(=O)C(C)(C)Oc2ccc(Cl)cc2)c([N+](=O)[O-])c1	/	-17	/	1.0
Cc1ccc(S(=O)(=O)Nc2ccc3c(c2)C(=O)N([C@@H](C)CO)C[C@H](C)[C@H](CN(C)Cc2ccc(-c4ccccc4)cc2)O3)cc1	/	-1	-0.045	1.2
COc1ccc(NC(=O)N(C)C[C@@H]2Oc3ccc(NS(=O)(=O)c4ccc(C)cc4)cc3CC(=O)N([C@H](C)CO)C[C@H]2C)cc1	-24	-3	-0.25	-0.4
CC(C)NC(=O)N(C)C[C@H]1Oc2ccc(NC(=O)CCN3CCOCC3)cc2C(=O)N([C@@H](C)CO)C[C@H]1C	-28	-4	-0.42	/
C[C@@H]1CCCCO[C@H](CN(C)Cc2ccc(C(F)(F)F)cc2)[C@@H](C)CN([C@H](C)CO)C(=O)c2cc(NC(=O)CCCCCC(=O)Nc3ccccc3N)ccc2O1	/	46	0.65	-0.7
COc1ccc(S(=O)(=O)Nc2ccc3c(c2)C(=O)N([C@H](C)CO)C[C@H](C)[C@H](CN(C)Cc2ccc(C(=O)Nc4ccccc4N)cc2)O3)cc1	/	-1	-0.46	0.4
CNC[C@@H]1Oc2ccc(NC(=O)NC3CCCCC3)cc2CC(=O)N([C@H](C)CO)C[C@H]1C	-61	-3	-0.43	2.1
C[C@H](CO)N1C[C@H](C)[C@H](CN(C)C(=O)Nc2ccc3c(c2)OCO3)Oc2ccc(NC(=O)C3CCCCC3)cc2C1=O	/	-10	0.25	/
C[C@@H]1CN([C@H](C)CO)C(=O)Cc2cc(NS(=O)(=O)c3cccs3)ccc2O[C@H]1CN(C)C(=O)NC1CCCCC1	-34	-3	-0.068	1.6
